# Screening results deposited in PubChem by Southern Research Specialized Biocontainment Screening Center.
# V. cholerae QS = Vibrio cholerae quorum sensing activators, luminescence (AID 686977) | V. cholerae quorum sensing reporter, luminescence, 6 h; higher luminescence means a stronger effect; most inactives read 0 | 9,400 tested, under 10 active | luminescence at 50 µM unless noted; hits with a dose series show EC50 in µM;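 active means light above mean plus 3 SD and confirmed in a dose series; inconclusive means above that limit without a clear retest; inactive means below it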;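 further: raw light counts without normalisation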
# An asterisk follows results filed as active; ? = inconclusive; [ ] = remark or other dose. Only part of the results is shown. The share of hits here may be higher or lower than overall.
smiles	V. cholerae QS
COc1ccc(N2CCN(C(=O)C34CCC(C)(C(=O)C3)C4(C)C)CC2)cc1 (stereo unspecified)	40
COC(=O)c1ccccc1NC(=O)C1CCCN(c2nnc(-n3cccc3)s2)C1 (stereo unspecified)	0
O=C(Nc1nc2ccc(S(=O)(=O)N3CCCCC3)cc2s1)c1cccnc1	0
COc1ccc2c(C)cc(=O)[nH]c2c1	?
O=c1oc2ccccc2c(O)c1Cc1c(O)c2ccccc2oc1=O	0[10 µg/mL]
C/C(=N\OC(=O)c1ccc(Cl)c(Cl)c1)c1sc(C)nc1C	?
CCn1c(SCC(=O)NCC2CCCO2)nc2c(c1=O)SC(C)C2 (stereo unspecified)	0
Cc1ccc2[nH]cc(CCNC(=O)c3cccnc3)c2c1	?
Cc1cccc(N2C(=O)CN=C2Nc2nc(C)cc(C)n2)c1	40
COc1ccc(OC)c(S(=O)(=O)Nc2ccc(OCC(=O)O)cc2)c1	0
N#C/C(=N\Nc1ccc(Cl)cc1)C(=O)c1ccccc1	0
CCC(SCC(=O)OC)C(=O)Nc1nnc(C(C)C)s1 (stereo unspecified)	0
Oc1ccccc1CNc1nc2ccccc2n1CCN1CCCCC1	0
CCn1c(SCc2nc3ccccc3[nH]2)nnc1-c1cccnc1	?
CC(C)COC(=O)C1C2C=CC3(CN(C4CCCC4)C(=O)C13)O2 (stereo unspecified)	0
c1ccc(CC2CCN(Cc3nc(-c4ccccc4)no3)CC2)cc1	?
O=C(COC(=O)c1ccc(Br)o1)NCCCc1ccccc1	0
CCN1C(=O)c2cccc3c(NC(=O)c4ccc(OC)c(OC)c4)ccc1c23	0
O=C(CCS(=O)(=O)c1ccccc1)Nc1nccs1	40
CCCc1nc2ccccc2c(C(=O)OCc2nnc(-c3cc(OC)c(OC)c(OC)c3)o2)c1CC	0

# 2 of the compounds above, as labelled records.
N#C/C(=N\Nc1ccc(Cl)cc1)C(=O)c1ccccc1
- V. cholerae QS: 0
CCC(SCC(=O)OC)C(=O)Nc1nnc(C(C)C)s1 (stereo unspecified)
- V. cholerae QS: 0

# Carrying on:
smiles	V. cholerae QS
COCCCNC(=O)Cn1nnc(-c2ccc(NC(=O)c3ccccc3OC)cc2)n1	40
Cc1cc(NC(=O)CSc2nc(C(C)C)nc3c2c(=O)n(C)c(=O)n3C)no1	40
C[N+]1(CCCCCCC(=O)/C=N/O)CCCCCC1	40
CCc1cc(=O)n2c([nH]c3ccccc32)c1C#N	0
COc1ccc(Cl)cc1N1C(=O)C2CCCN2C1c1ccc(F)c(F)c1 (stereo unspecified)	0
COc1ccc(C(c2sc3nc(C)nn3c2O)N2CCC(C(N)=O)CC2)cc1OC (stereo unspecified)	0
Clc1ccccc1CN1CCc2sccc2C1	40[10 µg/mL]
Cc1c(C(=O)NCC2COc3ccccc3O2)oc2ccc(S(=O)(=O)N3CCOCC3)cc12 (stereo unspecified)	40
O=C(NC12CC3CC(CC(C3)C1)C2)c1ccc(S(=O)(=O)N2CCOCC2)cc1	0
Cc1ccc(S(=O)(=O)N2CCC(C(=O)N3CCN(Cc4ccccc4)CC3)CC2)cc1	0
COc1cc(C(=O)Nc2sc(C(=O)N3CCOCC3)c(C)c2C#N)cc(OC)c1OC	40
O=C(CN(C1CCCCC1)S(=O)(=O)c1ccc(Cl)cc1)NCc1cccnc1	0
O=C(Nc1cccc(F)c1)c1ccc(S(=O)(=O)N2CCCC2)cc1	40
CCCc1cc(C(=O)NCCc2ccccc2)no1	0
N#CC(Nc1ccccc1)c1ccccc1OCc1ccccc1 (stereo unspecified)	40
CC1CCN(C(=O)CSc2nc3c(cnn3-c3ccccc3)c(=O)[nH]2)CC1	?
COc1ccc(S(=O)(=O)Cc2ccc(C(=O)NCc3ccccn3)o2)cc1	0
Cc1occc1C(=O)Nc1ccc(S(=O)(=O)N2CCN(C)CC2)cc1	0
CCCCCn1c(SCC2CCCO2)nc2cc(C(=O)N3CCC(C(N)=O)CC3)ccc2c1=O (stereo unspecified)	0
CN1C2CCCC1CC(=O)C2	0[10 µg/mL]
O=C1Nc2ccccc2/C1=C/C(=O)c1cccs1	40
O=C(c1ccco1)N(Cc1ccc([N+](=O)[O-])cc1)c1ccc(Cl)cc1	0
CN(C)CCN=Cc1c(O)n(C2CCCCCC2)c(=O)[nH]c1=O	40
CC(C)N1CCC2(CC1)NC(CO)(CO)CO2	0
Cn1nccc1C(=O)Nn1cnnc1	0
CCC1CCCCN1C(=O)COc1cc(=O)n(C)c2ccccc12 (stereo unspecified)	40
C[C@H]1C(=O)O[C@@H]2CCN3CC=C(COC(=O)[C@](C)(O)[C@]1(C)O)[C@H]23	0[10 µg/mL]
Cc1ccc(NC(=O)c2onc(C)c2Cl)cc1	40
C/C(CC1CC2=C(CC1(C)C)C(C)(C)CCC2)=N\NC(N)=S (stereo unspecified)	0
NC(=O)c1ncn([C@@H]2O[C@H](CO)[C@@H](O)[C@H]2O)n1	0[10 µg/mL]
Oc1c(Cl)cc(Cl)cc1C=Nc1ccc2c(c1)OCCO2	0
COc1cc(C(=O)OCCCN2CCCN(CCCOC(=O)c3cc(OC)c(OC)c(OC)c3)CC2)cc(OC)c1OC	0[10 µg/mL]
COc1ccc(C2C(C(=O)Nc3ccccc3OC)=C(C)Nc3ncnn32)cc1 (stereo unspecified)	0
CC(C)Nc1ncnc2c1cnn2-c1ccc(Cl)cc1	0
CCC(=O)Nc1ccc(N2CCCCC2)c(C(=O)Nc2ccccc2C)c1	0
Oc1ccc(Br)cc1-c1cc(-c2ccc(Cl)cc2)n[nH]1	40
Cc1cccc(C)c1NC1=NCCCS1	0[10 µg/mL]
COC(=O)c1ccccc1OCCCOc1ccc(C)cc1OC	40
Cc1c(Cl)cccc1NC(=S)NN1CCOCC1	0
CCOC(=O)N1CCN(C(=O)CN(c2cc(C(F)(F)F)ccc2Cl)S(C)(=O)=O)CC1	0
CCN(Cc1ccccc1)C(=O)C1CCC(CNc2c(N3CCOCC3)c(=O)c2=O)CC1 (stereo unspecified)	0
CSc1nc2c(c(=O)n1C)SC(C)C2 (stereo unspecified)	40
COc1ccccc1S(=O)Cc1ccc(C(=O)NCCc2ccc(Cl)cc2)o1 (stereo unspecified)	0
CCC(c1ccc(O)cc1)C(CC)c1ccc(O)cc1 (stereo unspecified)	0[10 µg/mL]
CCC(CO)Nc1ncnc2c1cnn2-c1ccc(OC)cc1 (stereo unspecified)	0
COC(=O)c1cc(NC2c3ccccc3C(=O)N2CCN2CCOCC2)cc(C(=O)OC)c1 (stereo unspecified)	40
CC(=O)OCC1=C(C(=O)O)N2C(=O)[C@@H](N)[C@H]2SC1	0[10 µg/mL]
COCCn1c(=O)[nH]c2cc(C(=O)NC3CCCCCC3)ccc2c1=O	200
Brc1ccc2c(c1)C(c1cccs1)=NNC(c1cccnc1)=N2	0
CCOC(=O)CSC1=C(C#N)C(c2ccc(F)cc2)C(C(C)=O)=C(C)N1 (stereo unspecified)	40
Cc1cc2cc(CNS(=O)(=O)c3ccc4ccccc4c3)ccc2n1C	0
Cc1nc2cc(-c3ccccc3)nn2c(C)c1CCC(=O)NCc1ccco1	0
CCC(=O)Nc1ccc(F)c(Cl)c1	0
O=C(COC(=O)CCC(=O)c1cccs1)NCc1ccco1	40
CCOC(=O)N1CCC(N2Cc3cccc(C(=O)Nc4cc(F)ccc4F)c3C2=O)CC1	0
Cc1ccc(C(C#N)c2ccc(C(=O)c3ccc(F)cc3)cc2)cc1 (stereo unspecified)	0
CC1CC2=C(NC(=S)NC2c2ccc(F)cc2)/C(=C/c2ccc(F)cc2)C1 (stereo unspecified)	40
CCOC(=O)Nc1ccc(S(=O)(=O)N2CCOCC2)cc1	0
CCOC(=O)c1ccccc1NC(=O)CSc1nnc(Cc2cccn2C)n1-c1ccc(C)cc1	0
CCCc1[nH]n(-c2nc3ccccc3s2)c(=O)c1C=NCC(C)C	0

# The results go on.
mol | V. cholerae QS
CO/N=C/C(=N\Nc1ccc(C)cc1)C(=O)c1ccc(OC)cc1 | 0
CSc1nc2nc3c(cn2n1)C(=O)CC(c1ccccc1)C3 (stereo unspecified) | 0
O=C(Nc1cccc(C(=O)N2CCCC2)c1)c1ccccc1Cl | 40
Cc1cn2c(nc1=O)OC1C(O)C(COC(=O)c3ccccc3)OC12 (stereo unspecified) | 0
N#CCCN1CCN(S(=O)(=O)c2ccc(S(=O)(=O)N3CCOCC3)cc2)CC1 | 0
O=C(O)c1ccc(NS(=O)(=O)c2ccc3nnn(O)c3c2)cc1 | 0
Cn1nc(-c2ccccc2)c(-c2nc(-c3ccc(Cl)cc3)no2)c1Cl | ?
CCOc1ccccc1NC(=O)c1cccc2c1C(=O)N(CCOC)C2 | 0
COc1ccccc1NC(=O)C1=C(C)NC(=O)NC1c1ccccc1F (stereo unspecified) | 0
COCCn1c(SCc2nc3ccccc3c(=O)[nH]2)nnc1-c1ccncc1 | 40
CCC(C)n1c(O)c(C(c2ccccn2)c2c(O)n(C(C)CC)c(=S)[nH]c2=O)c(=O)[nH]c1=S (stereo unspecified) | 0
CCOc1ccc(CCNC(=O)C2CCN(c3nnc(-n4cccc4)s3)CC2)cc1 | 0
CN(C)CCCN1c2ccccc2Sc2ccc(C(F)(F)F)cc21 | 0[10 µg/mL]
CCn1c(SCC(=O)N2CCOCC2)nc(O)cc1=O | 0
Cc1cccc(C2CC(c3ccccc3)Nc3ncnn32)c1 (stereo unspecified) | 40
Nc1nc2ccc(OC(F)(F)F)cc2s1 | 0[10 µg/mL]
NCC1CCC(C(=O)O)CC1 (stereo unspecified) | 0[10 µg/mL]
CCOC(=O)c1cncn1[C@@H](C)c1ccccc1 | 40[10 µg/mL]
CCC(=O)NCCCOc1ccccc1 | 0
Cc1csc2ncc(C(=O)NC(C)c3ccccc3)c(=O)n12 (stereo unspecified) | 0
COc1ccccc1N/C(N)=N/c1nc(CSc2ccc(C)cc2)cc(=O)[nH]1 | 0
CCCC(=O)Nc1ccc2c(c1)C(=O)NC2=O | 40
CCC(CC)C(=O)N1c2ccc(F)cc2CCC1C (stereo unspecified) | 0
COc1ccccc1N1CCN(C(=O)CSc2nc(-c3ccco3)cc(C(F)(F)F)n2)CC1 | 0
CCN1CCc2c(sc(N)c2C#N)C1 | 0
Cc1ccc(S(=O)(=O)C(C#N)c2nc3ccccc3nc2N2CCN(C)CC2)cc1C (stereo unspecified) | ?
c1ccc2c(c1)nc(NCCN1CCOCC1)c1nncn12 | 0
CCOC(=O)C(CCCOc1ccccc1)C(=O)OCC | 0
CCCN1C(=O)c2cc(C(=O)NCc3ccc(OC)cc3)ccc2C1O (stereo unspecified) | 40
CCn1c(SCC(=O)NC(=O)NCc2ccco2)nc2sc(C)c(C)c2c1=O | 0
CCCC(=O)Nc1c(-c2cccs2)c(=O)c2ccccc2n1C | 40
CCOC(=O)N1CCN(C(=O)CSc2nnc(-c3ccc(C)c(C)c3)o2)CC1 | 40
CCCCCn1c(=O)[nH]c2cc(C(=O)NCCCN(CC)CC)ccc2c1=O | ?
COc1ccc(S(=O)(=O)n2cnc3cc(C)c(C)cc32)cc1 | 0
O=C(O)CCn1c(SCc2cccc3ccccc23)nc2ccccc21 | 40
CCc1cc(C(=O)O)c(NC(=O)C(c2ccccc2)c2ccccc2)s1 | 0
Nc1nc(-c2ccc(F)cc2)cc(C(F)(F)F)n1 | 0
Cn1c(CNc2cccc(Cl)c2)nnc1SCC(=O)OC1CCCCC1 | 0
CN(CC(=O)NCc1ccc(Cl)cc1)S(=O)(=O)c1cccc2cccnc12 | 40
CCOC(=O)c1nc2ccccc2s1 | 0

# Shown with each value named: part of the list above
smiles: CCCCCn1c(=O)[nH]c2cc(C(=O)NCCCN(CC)CC)ccc2c1=O
  V. cholerae QS: ?
smiles: COc1ccc(S(=O)(=O)n2cnc3cc(C)c(C)cc32)cc1
  V. cholerae QS: 0
smiles: O=C(O)CCn1c(SCc2cccc3ccccc23)nc2ccccc21
  V. cholerae QS: 40

# Continued:
mol | V. cholerae QS
Cc1ccc(-c2ccc(CCC(=O)O)n2C(C)C)cc1 | 0
Cc1ccc(NC(=O)C2CCCNC2=O)nc1 (stereo unspecified) | 40
Cc1ccc(NC(=O)C2CCN(S(=O)(=O)c3cccc4cccnc34)CC2)nc1 | 0
CCOc1cc(/C=C2\C(=O)N(c3nc(-c4ccc(Br)cc4)cs3)N=C2c2ccccc2)ccc1O | 0
COc1cccc(C2CC(c3ccc(Cl)cc3)n3nc(N)nc3N2)c1 (stereo unspecified) | 0
CCC(=O)Nc1cc(C)c(NC(=O)c2ccco2)cn1 | 0
Cc1ccc(-n2c(=O)cc(N3CCN(C(=O)c4ccco4)CC3)[nH]c2=O)cc1 | 0
CC(NC(=O)CCOc1ccccc1)c1ccccc1 (stereo unspecified) | 0

# Six compounds picked at random from those above, as already listed:
mol | V. cholerae QS
C[N+]1(CCCCCCC(=O)/C=N/O)CCCCCC1 | 40
O=C(COC(=O)CCC(=O)c1cccs1)NCc1ccco1 | 40
CN1C2CCCC1CC(=O)C2 | 0[10 µg/mL]
Cn1nccc1C(=O)Nn1cnnc1 | 0
COc1ccccc1N1CCN(C(=O)CSc2nc(-c3ccco3)cc(C(F)(F)F)n2)CC1 | 0
CCn1c(SCC(=O)NCC2CCCO2)nc2c(c1=O)SC(C)C2 (stereo unspecified) | 0

# More entries follow:
mol | V. cholerae QS
COC(=O)Nc1nc2ccc(SC(C)C)cc2[nH]1 | ?
O=c1cc(CO)oc(CN2CCN(c3cccc(C(F)(F)F)c3)CC2)c1O | 0
COC(=O)NCc1ccc2c(c1)OCO2 | 0
COc1ccc(OCCNS(=O)(=O)c2ccccc2)cc1 | 40
CN1CCN(C(=O)c2cc(-c3ccco3)on2)CC1 | 240
CC(C)(C)c1cc(CCC(=O)N2CCNCC2)c(C(C)(C)C)cc1O | 200
CCCCOC(=O)C(C)Nc1n[nH]c(=S)[nH]c1=O (stereo unspecified) | 40
Cn1c(C(=O)N2CCCC(C(=O)NCc3ccc4c(c3)OCO4)C2)cc2sccc21 (stereo unspecified) | 40
